Sa growth 42C: S. aureus growth inhibition; 170,000 tested, 0.53% active; S. aureus RN4220 growth, OD600, 20 h, 42 °C; stronger effect = lower value; relative growth, % (concentration not given with the values);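 active = growth at 42 °C up to 50% and 20 or more points under that at 30 °C, or under 10% at both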;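 note: 300 nL library stock went into each well; scaled to the means of positive and negative controls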
HCMV NEC inh: inhibitors of HCMV UL50-UL53 nuclear egress complex interaction. 190,000 tested, 0.15% active. inhibition, % (test concentration not listed). HTRF UL50-UL53 interaction, normalized percent inhibition;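 active = both replicates at 50% or more, plus weaker picks with an unusually low signal ratio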;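 note: stock transfer was 100 nL into about 20 µL; 0% = negative control wells and 100% = wells with untagged competitor protein; inactives centre near -12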
GIV Gai3 FP: inhibitors of GIV GBA-motif binding to rat Galpha-i3; P08753; 210,000 tested, 0.42% active; Galpha-i3/FITC-GIV peptide fluorescence polarization, 90 min; stronger effect = lower value; scaled: aluminum fluoride 0%, vehicle 100%; percent of control (FP), % (test concentration not listed);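 active = replicate mean at 85% of control or lower, very high polarization wells dropped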;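 note: wells of about 15 µL received 100 nL stock; the first replicate is given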
Target sequence (P08753 whole entry, looked up): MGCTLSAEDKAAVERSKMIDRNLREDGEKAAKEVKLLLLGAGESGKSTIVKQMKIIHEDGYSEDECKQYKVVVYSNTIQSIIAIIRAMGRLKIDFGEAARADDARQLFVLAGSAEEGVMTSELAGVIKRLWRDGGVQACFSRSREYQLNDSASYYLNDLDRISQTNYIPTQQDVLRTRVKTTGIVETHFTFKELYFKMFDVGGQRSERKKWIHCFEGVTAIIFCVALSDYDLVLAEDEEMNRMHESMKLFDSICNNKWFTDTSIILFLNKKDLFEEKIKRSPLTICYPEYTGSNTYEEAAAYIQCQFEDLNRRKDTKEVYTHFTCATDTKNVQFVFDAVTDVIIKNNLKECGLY
Sa growth 42C second temp: recorded beside Sa growth 42C, whose call it bears; relative growth, %; measured here: growth at 30 °C;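 optical density after 20 h as mean of two plates; 100% = untreated growth and lower means inhibition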
* hit, by the source's call; . = no result given; & = joins results of further samples. No enrichment for hits; overall some 0.8% were active at least once.

SMILES	Sa growth 42C	Sa growth 42C second temp	HCMV NEC inh	GIV Gai3 FP
CC1(C)CC(=O)C2=C(C1)OC1=C(C(=O)CC(C)(C)C1)C2c1cccc(O)c1	112	92	24	102
O=C(NCc1ccco1)c1ccc2c(=O)n(-c3ccccc3)c(=O)n(CC(=O)N3CCN(c4ccccc4)CC3)c2c1	92	81	-21	98
CCOc1ccc(-n2c(=O)c3c4c(sc3n(CC(=O)NCC3CCCO3)c2=O)CCCC4)cc1 (stereo not drawn)	110	89	.	102
Cn1c(=O)n(C)c2cc(/C=C3\SC(=Nc4ccccc4)N(c4ccccc4)C3=O)ccc21	.	.	-7	103
CCOC(=O)c1ccc(CN(Cc2ccccc2C)S(=O)(=O)c2ccc(F)c(C)c2)cc1	98	91	.	100
O=c1c[n+]([O-])c2ccccc2n1OCc1ccccn1	93	93	-95	111
CCOC(=O)c1ccc(NC(=O)Cn2nc(SCC)c(S(=O)(=O)c3ccc(C)cc3)c2N)cc1	.	.	-8	101
Cn1c(CN2CCCC2)nc2cc(NC(=O)c3ccccc3)ccc21	102	90	-6	104
c1ccc(-c2nnc(CN3CCCC3)o2)cc1	.	.	-15	100
COc1ccc(/C=C2\N=C(c3cc([N+](=O)[O-])ccc3Cl)OC2=O)c(OC)c1OC	.	.	-18	105
Cc1cc(S(=O)(=O)Nc2ccc(N3CCCS3(=O)=O)cc2)ccc1F	.	.	-27	100
Cc1nn(-c2ccc(Cl)cc2)c2sc(C(=O)N(C)C3CCCCC3)cc12	99	96	-7	.
Cc1ccc(CNC(=O)C2(C)Cn3nc(C)cc3C(=O)N2c2ccc(F)cc2)cc1 (stereo not drawn)	.	.	-12	100
COC(=O)c1ccccc1NC(=O)C1CCCC1	92	96	2	108
Cc1cc(C)c(C#N)c(OC(C)C)n1	101	81	-14	102
Cc1ccc(C2=NC3(CCN(C(=O)c4ccccc4)CC3)NC2=O)cc1	109	102	12	98
N#C/C=C(\Cl)c1ccccc1	100	104	25	.
O=C(O)c1cnn(-c2ccccc2)c1-n1cccc1CNCc1ccccc1	93	90	.	102
O=C(O)CCc1ccc(-c2ccc(F)cc2)n1CCC(=O)O	109	89	-6	96
CCCCN(CC)C(=O)Cn1c(=O)n(-c2ccc(OCC)cc2)c(=O)c2c3c(sc21)CCCC3	103	80	4	101
CC1Cc2ccccc2N1C(=O)c1ccc(Cl)cc1 (stereo not drawn)	95	99	-15	103
CCOC(=O)C(C)Oc1cc(O)c2c(=O)cc(-c3ccccc3)oc2c1 (stereo not drawn)	126	101	13	104
CC(C)(C)C(=O)Nc1nc(NC(=O)C(C)(C)C)nc(-c2ccccc2C(F)(F)F)n1	91	98	3	103
Cc1nc2ccccc2c2oc(C(=O)NCCN3CCCCCC3)cc12	108	85	-5	101
CCn1nc(C)c(CCN(C)C(=O)Nc2cccc(Br)c2)c1C	.	.	-17	103
COCCCNC(=O)CSC1=Nc2ccccc2C2=NC(CCC(=O)NCc3ccc(OC)cc3)C(=O)N12 (stereo not drawn)	96	90	.	100
Cc1cccc(C)c1OCC(O)Cn1c(C2CC(=O)N(C(C)(C)C)C2)nc2ccccc21 (stereo not drawn)	.	.	-8	100
COCOC(=O)C1(c2ccc(Cl)cc2)CCCC1	88	76	-5	.
COc1ccc(CC(=O)NCCc2sc(-c3cccc(F)c3)nc2C)cc1	97	92	.	102
Cc1ccc(C(=O)Nc2ccc(NC(=O)c3cccs3)cc2)cc1C	107	93	-14	110
COc1ccc(C2=NN(S(=O)(=O)c3ccccc3)C(c3ccc(OC)c(OC)c3)C2)cc1OC (stereo not drawn)	.	.	-4	108
Cc1c(-c2ccnc(N)n2)cnn1-c1ccccc1	88	76	-24	105
O=C(Nc1ccc2c(c1)OCCO2)c1ccccc1NCC(=O)N1CCc2ccccc21	89	91	-30	.
O=C(CSc1nc2c([nH]c3ccccc32)c(=O)n1-c1ccccc1)N1CCc2ccccc21	105	90	.	100
Cc1ccc(Cc2nn[nH]n2)cc1C	107	91	-12	98
N=C(N)N1CCN(Cc2ccc3c(c2)OCO3)CC1	111	102	-11	102
Cc1noc(C)c1COC(=O)c1ccccc1SCC(=O)N1CCCC1	83	88	-23	.
CCc1ccc(C(N)c2cccs2)cc1 (stereo not drawn)	106	95	-4	.
CCCn1nnc(NCc2ccc(-c3ccc(Br)cc3Br)o2)n1	.	.	1	100
CN(CCOc1ccc(Cl)cc1)Cc1cc2c(cc1O)OCO2	75	78	-24	.

Brought forward from above: 3 compounds, then new ones.
SMILES	Sa growth 42C	Sa growth 42C second temp	HCMV NEC inh	GIV Gai3 FP
CCc1ccc(C(N)c2cccs2)cc1 (stereo not drawn)	106	95	-4	.
CCCn1nnc(NCc2ccc(-c3ccc(Br)cc3Br)o2)n1	.	.	1	100
CN(CCOc1ccc(Cl)cc1)Cc1cc2c(cc1O)OCO2	75	78	-24	.
CCCCN(CC)Cc1c(C)[nH]c2ccc(Cl)cc2c1=O	91	84	-30	107
N#CC(C#N)=CNCCN1CCN(C=C(C#N)C#N)CC1	93	85	-61	103
Cc1ccc(C)c(N2CCN(C(=O)CN3C(=O)COc4ccc(S(=O)(=O)N5CCCCCC5)cc43)CC2)c1	76	92	3	93
Cn1c(C(=O)N2CCCCCC2)cc2c(=O)[nH]c3ccccc3c21	76	85	.	108
CN(C(=O)C1CCCN1S(=O)(=O)c1ccc(Cl)cc1)c1ccccc1 (stereo not drawn)	126	85	-14	.
Cc1nc(N2CCCC2)ncc1C(=O)N1CCCCC1	.	.	-25	101
COc1cccc(C2=CC(c3ccccc3F)n3ncc(C(=O)Nc4ccc(F)cc4)c3N2)c1 (stereo not drawn)	75	76	.	-60*
Cc1ccc(N2CC(NC(=O)c3cccc(Cl)c3)CC2=O)cc1C (stereo not drawn)	127	82	.	103
COc1ccccc1CNC(=O)c1cc2cccc3c2n1CC(C)S3 (stereo not drawn)	83	106	.	111
CCCN[C@H]1CS(=O)(=O)C[C@@H]1S(=O)(=O)c1cccs1	.	.	2	97
COc1ccc(NC(=O)Cn2nnc(C(=O)NCc3ccccc3Cl)c2N)cc1Cl	77	87	.	100
O=C(NCCCN1CCCC1=O)c1cccs1	81	106	3	102
COCCn1c(=O)/c(=C\c2ccccc2OC(F)F)s/c1=C(/C#N)C(=O)N1CCOCC1	106	90	-13	.
CC(C(=O)N1CCCc2ccccc21)N1C(=O)c2ccccc2C1=O (stereo not drawn)	112	100	-21	97
CNS(=O)(=O)c1cccc(C(=O)NCCc2ccc(S(N)(=O)=O)cc2)c1	84	94	11	.
Cc1ccc2c(c1)C1OCCC1C(c1ccncc1)N2 (stereo not drawn)	121	79	-5	98
Nc1ccc(Oc2ccc3c(c2)C(=O)N(Cc2cccnc2)C3=O)cc1	107	86	-62	102
CC(=O)Nc1ccc(C(=O)OCC(=O)Nc2cccc(C(F)(F)F)c2)cc1	121	79	-40	.
CCn1nccc1C1CCCN1C(=O)Nc1cc(Cl)c(OC)cc1OC (stereo not drawn)	.	.	-14	97
CCc1nc2ccccc2c(=O)n1Cc1noc(/C=C/c2ccccc2OC)n1	.	.	-26	105
COc1ccc(N(CC(=O)Nc2ccc(Cl)cc2C)S(=O)(=O)c2ccccc2)c(OC)c1	121	97	-2	108
O=C1CN(C(=O)C23CC4CC(CC(C4)C2)C3)CC(=O)N1CCc1ccccc1	89	98	-3	.
C=CCSc1ncc(Cl)c(C(=O)Nc2sc3c(c2C(=O)OC)CCC3)n1	.	.	1	105
COc1ccc(NC(=O)CSc2nnc3c4c(C)c(C)sc4ncn23)cc1OC	.	.	-42	103
CCOC(=O)CSc1nnnn1-c1ccccc1	90&91	92&88	42	98&96
O=C(NC1(C(F)(F)F)NC(=O)N(CCc2ccccc2)C1=O)c1ccccc1F (stereo not drawn)	104	93	-8	102
Cc1ccc2nc(-c3ccc(Cl)c(NC(=O)c4cccc(OCc5ccccc5)c4)c3)oc2c1	.	.	-6	102
Cc1nonc1OCC(C)(N)COc1nonc1C	103	83	-17	102
Cc1c(-c2nc(-c3ccccc3)no2)nnn1-c1cccc(C(F)(F)F)c1	94	90	.	103
CCOC(=O)Cn1c(=O)oc2cc(S(=O)(=O)NCc3cccc(OC)c3)ccc21	101	94	.	104
O=c1c2cnn(-c3ccc(Cl)cc3)c2ncn1Cc1cccc(C(F)(F)F)c1	98	89	-8	110
O=C(CC1CCCCC1)Nc1ccc2c(c1)OCCO2	73	94	10	.
O=C(O)c1cc(NN=C2CCCC2)ccc1Cl	80	81	-24	.
O=C1NC(=O)C(c2ccccc2)c2ccccc21 (stereo not drawn)	.	.	-11	102
COCCNC(=O)c1cc(-c2ccccc2F)no1	81	82	-24	101
Cc1sc(-c2noc(C3CC3)n2)cc1NC(=O)c1ccsc1	.	.	-15	105
O=C(CCN(CCN1CCCCC1)C(=O)c1ccc(F)c(Cl)c1)N1CCNCC1	.	.	-24	98
CCCC(=O)Nc1cc2nn(-c3ccccc3)nc2cc1C	102	89	-43	113
CCNCc1ccc2c(c1)n(C)c(=O)n2C	.	.	-21	106
COC(=O)c1cc2sc(C)cc2n1CC(=O)Nc1ccc(C)c(C)c1	116	96	-14	102
O=C1CC(C(F)(F)F)=NN1c1ccccc1	105	90	6	104
O=C(OCC(=O)N1CCOCC1)c1ccc(-c2ccccc2)cc1	104	96	-11	.
CCOc1ccccc1C1CC(=O)Nc2c1c(C)nn2-c1ccc2nncn2n1 (stereo not drawn)	.	.	-6	97
CC1=CC2=NC(C(F)(F)F)(C(F)(F)F)NC(=O)N2C=C1	125	97	.	101
Nc1cc(=O)[nH]c(SCC(=O)N(C2CCCCC2)C2CCCCC2)n1	103	91	-11	.
O=C(Oc1ccccc1)Oc1ccc2c(c1)oc(=O)c1ccccc12	100	89	-4	.
Cc1ccccc1CCNC(=O)c1ccc(Cn2c(=O)c3cccn3c3cccnc32)cc1	120	85	.	109
Cc1cccc(NC(=O)CCNS(=O)(=O)c2cccc3nonc23)c1	155	82	-32	102
CC(C)NC(=O)c1nn(C)c2c1CSc1ccccc1-2	.	.	-9	105
Cc1ccc(Cl)cc1NC(=O)Cn1c(SCC(=O)NCc2ccccc2)nc2ccccc21	98	73	.	99
Going on with the list.
SMILES	Sa growth 42C	Sa growth 42C second temp	HCMV NEC inh	GIV Gai3 FP
COc1ccccc1-c1c(C)nn2c(NCCCN3CCCC3=O)cc(C)nc12	89	85	.	98
CCOC(=O)c1c(C)oc(-c2ccc(Cl)cc2)c1S(=O)(=O)NCc1ccccc1	117	93	-32	99
CC1(C(=O)NC2CCCC2)Cn2c(ccc2-c2ccccc2)C(=O)N1Cc1ccc(F)cc1 (stereo not drawn)	.	.	-12	98
O=C(CCn1c(SCC(=O)NC2CCCC2)nc2ccccc2c1=O)NC1CCCCC1	96	93	-18	102
O=C(NCCc1ccccc1)c1ccc2nc(N3CCCCC3)sc2c1	95	96	9	107
COc1ccc(C(=O)n2ccc(-c3oc(C)nc3C)n2)cc1	91	97	1	98
O=C(CSCc1ccc(Br)cc1)N1CCCC1	95	103	-11	100
COc1ccc(-c2ccc3c(N)c(C(=O)Nc4cccc(C)c4)sc3n2)cc1	101	99	-8	107
CN(C)C(CNC(=O)c1cc(=O)c2ccc(Br)cc2o1)c1ccc(C(C)(C)C)cc1 (stereo not drawn)	.	.	-68	111
CCN(CC)S(=O)(=O)c1ccc(N2CCCCC2)c(C(=O)O)c1	102	89	6	.

Complete entries, quoted from the list:
O=C(CSCc1ccc(Br)cc1)N1CCCC1 as listed: Sa growth 42C = 95; Sa growth 42C second temp = 103; HCMV NEC inh = -11; GIV Gai3 FP = 100
COc1ccc(C(=O)n2ccc(-c3oc(C)nc3C)n2)cc1 as listed: Sa growth 42C = 91; Sa growth 42C second temp = 97; HCMV NEC inh = 1; GIV Gai3 FP = 98

(more compounds)
SMILES	Sa growth 42C	Sa growth 42C second temp	HCMV NEC inh	GIV Gai3 FP
CCC(C)NC(=O)C1CCCN(S(=O)(=O)c2ccc(C)cc2)C1 (stereo not drawn)	94	97	.	99
CC1CN(C(=O)COC(=O)c2cccs2)CC(C)O1 (stereo not drawn)	81	91	-16	.
Cc1ccccc1Nc1cc(C(=O)NCCc2ccc(Cl)cc2)c2ccccc2n1	103	91	-17	103
N#CCCn1c(SCc2cc3c(cc2Br)OCO3)nc2ccccc21	107	82	-21	.
COc1ccc(NC(=O)C2=C(C)Nc3nc(SCc4ccccc4C)nn3C2c2cc(OC)c(O)c(OC)c2)cc1 (stereo not drawn)	93	75	-58	103
CCOC(=O)c1cccc(NC(=O)C2CCCN(S(=O)(=O)c3ccc4c(c3)oc(=O)n4C)C2)c1 (stereo not drawn)	104	85	-37	102
Cn1c(=O)c(C(=O)O)nc2ccccc21	.	.	-63	100
CC1CCN(CCCNC(=O)C2(S(=O)(=O)c3ccc(Cl)cc3)CC2)CC1	95	94	.	100
O=C(c1nnc(Cc2ccc(Cl)cc2)o1)N1CCOCC1	90	88	-4	100

Sorted by the number under GIV Gai3 FP (low to high): four of the compounds above
compound	Sa growth 42C second temp	GIV Gai3 FP
CCC(C)NC(=O)C1CCCN(S(=O)(=O)c2ccc(C)cc2)C1 (stereo not drawn)	97	99
CC1CCN(CCCNC(=O)C2(S(=O)(=O)c3ccc(Cl)cc3)CC2)CC1	94	100
CCOC(=O)c1cccc(NC(=O)C2CCCN(S(=O)(=O)c3ccc4c(c3)oc(=O)n4C)C2)c1 (stereo not drawn)	85	102
Cc1ccccc1Nc1cc(C(=O)NCCc2ccc(Cl)cc2)c2ccccc2n1	91	103

High-throughput results from PubChem BioAssay.
